Mtb H37Rv = M. tuberculosis H37Rv growth inhibitors, H37Rv strain (AID 1626) | M. tuberculosis H37Rv growth inhibition; higher % means a stronger effect | one-dose inhibition, % at 10 µM; IC50 in µM for titrated hits | hit rate 0.95% among 220,000;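 active means confirmed in a dose series; inconclusive means inhibition above 80% but not taken into the dose series; inactive means below 80% or under 30% at every dose of the series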;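 further: bacteria incubated seven days before Alamar blue readout; 0% = bacteria only wells and 100% = bacteria with antibiotic wells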
Arbovirus inh = antivirals against arbovirus infection, primary screen, cell-based, full library, 10K replicate subset; inhibition, % at 10 µM; hit rate 0.37% among 200,000; AID 1251, 2008; arbovirus infection cell-based antiviral screen;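 active means inhibition from about 30%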;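 further: bluetongue infection of BSR cells; cell survival read as ATP light after 72 h; 0% = infected wells without compound and 100% = uninfected wells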
Mtb bLac sens = beta-lactam sensitization of Mtb H37Rv, H37Rv; inhibition, % at 25 µM; M. tuberculosis H37Rv growth with meropenem, percent inhibition; hits of this screen are not shown here; hit rate 0.27% among 330,000;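 active means about 74% or more and at least 40 points above the plate without the antibiotic, then above 30% in a dose series; inconclusive means first-round hits that could not be retested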;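 further: growth measured after seven days incubation then overnight dye step; 0% = bacteria only wells and 100% = bacteria with antibiotic; twin plates without the antibiotic show which effects depend on it; some results filed as inactive read as strong as hits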
RecA splice inh = Mtb RecA intein splicing inhibitors, primary screen, biochemical, fluorescence, HTS; hit rate 0.75% among 290,000; Protein RecA (Mycobacterium tuberculosis (strain ATCC 25618 / H37Rv)), P9WHJ3; inhibition, %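 (about 9 µM by stock and volumes)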; cell-free RecA intein splicing; in the data active means inhibition above about 30%; inconclusive means no clear call, values can overlap the other calls;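 further: 0% = vehicle wells and 100% = reference inhibitor control wells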
Target sequence (P9WHJ3 whole entry, looked up, canonical isoform): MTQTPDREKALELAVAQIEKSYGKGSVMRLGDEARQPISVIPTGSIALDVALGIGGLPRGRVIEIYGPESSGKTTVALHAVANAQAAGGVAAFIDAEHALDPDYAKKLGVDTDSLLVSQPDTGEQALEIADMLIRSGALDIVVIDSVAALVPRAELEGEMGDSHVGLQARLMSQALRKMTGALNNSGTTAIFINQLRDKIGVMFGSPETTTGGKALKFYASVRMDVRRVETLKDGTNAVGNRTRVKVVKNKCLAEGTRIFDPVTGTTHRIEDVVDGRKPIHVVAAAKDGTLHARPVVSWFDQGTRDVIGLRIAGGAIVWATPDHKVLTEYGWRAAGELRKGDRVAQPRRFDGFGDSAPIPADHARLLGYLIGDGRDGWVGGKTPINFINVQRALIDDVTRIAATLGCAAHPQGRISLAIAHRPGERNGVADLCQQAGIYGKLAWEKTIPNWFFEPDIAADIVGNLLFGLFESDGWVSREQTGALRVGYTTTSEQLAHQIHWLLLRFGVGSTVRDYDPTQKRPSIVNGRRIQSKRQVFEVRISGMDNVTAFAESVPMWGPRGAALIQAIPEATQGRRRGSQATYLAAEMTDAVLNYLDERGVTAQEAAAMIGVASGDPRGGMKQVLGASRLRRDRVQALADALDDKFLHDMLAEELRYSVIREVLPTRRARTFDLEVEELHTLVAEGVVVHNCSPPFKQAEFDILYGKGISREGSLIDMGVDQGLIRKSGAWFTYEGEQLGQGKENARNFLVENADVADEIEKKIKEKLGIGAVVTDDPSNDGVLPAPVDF
YopH inh = YopH tyrosine phosphatase inhibitors, primary screen, biochemical, fluorescence Ex485/Em525; AID 898, 2007; YopH tyrosine phosphatase [Yersinia enterocolitica]; inhibition, %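 (about 10 µM by stock and volumes)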; hit rate 0.16% among 140,000;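 active means inhibition of 50% or more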;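 further: controls were vehicle for no effect and minimum signal wells for full effect; inactives centre near -20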
Arbovirus inh repeat = second read-out of Arbovirus inh, no call of its own (marks repeat the call); inhibition, %; measured here: 10K subset replicate screen; many hits read low in the repeat;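 first of two repeat runs on a subset; 0% = infected and 100% = uninfected wells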
Starred values were filed as active, the others as inactive; ? = inconclusive; / = not tested or not shown. These rows are one share of the data; the hit share may differ from the screen's.

SMILES | Mtb H37Rv | Arbovirus inh | Mtb bLac sens | RecA splice inh | YopH inh | others
Cc1ccnc(N2C(=O)c3ccccc3C2Nc2ccccc2Cl)c1 (centres undefined) | 0% | 0 | 3 | -1.0 | -43 | Arbovirus inh repeat=5
O=C(O)C(c1ccccc1)N1C(=O)/C(=C\c2ccc(-c3ccccc3Cl)o2)SC1=S (centres undefined) | / | / | 0 | 18 | /
O=C(NCCCCc1ccccc1)c1cccc([N+](=O)[O-])c1 | 8% | -2 | 0 | 4.1 | /
O=C(c1ccccc1)C(C(=O)N1CCc2ccccc2C1)n1ccccc1=O (centres undefined) | 7% | 6 | 5 | -1.7 | -23
Cc1ccc(S(=O)(=O)N(CC(=O)Nc2cccc(C(F)(F)F)c2)C(=O)N2CCN(C)CC2)cc1 | / | / | -6 | 0.1 | /
CC(=O)N=c1sccn1CC(O)c1ccc(Br)cc1 (centres undefined) | / | / | 3 | -1.7 | /
C=CCOc1cccc(C2C(C(=O)c3ccco3)=C(O)C(=O)N2Cc2ccco2)c1 (centres undefined) | / | / | 4 | 2.1 | /
CNC(=O)C(C#N)(Cc1cc(C(C)=O)ccc1OC)Cc1cc(C(C)=O)ccc1OC | / | / | -4 | -0.9 | /
COc1ccc(C)cc1NC(=O)Cn1c(=O)oc2ccccc21 | / | / | 8 | 2.1 | /
CCCCN(C(=O)CNC(=O)c1cccs1)C(C(=O)NC1CCCC1)c1ccncc1 (centres undefined) | 2% | 4 | -4 | 0.5 | /
Cc1cc(C)n(S(=O)(=O)c2ccccc2[N+](=O)[O-])n1 | / | / | -2 | -2.7 | /
Cc1ccc2c(c1)N(CCCC(=O)NCc1ccc3c(c1)OCO3)C(=O)CO2 | / | -3 | 5 | -0.5 | -20 | Arbovirus inh repeat=-8
O=C(/C=C/c1cccc2ccccc12)NCCC1=CCCCC1 | / | -10 | -1 | 1.1 | -39
COc1ccccc1/C=C1\SC(=O)N(CC(=O)N(C)C2CCS(=O)(=O)C2)C1=O (centres undefined) | / | / | 4 | 0.0 | /
Cc1ccccc1N1C(=O)c2ccccc2N2C(=O)c3ccccc3C12 (centres undefined) | 5% | 4 | -6 | 10 | -15
CC(C)c1ccc(/C=N/NC(=O)c2cccc(Cl)c2)cc1 | -6% | -13 | 6 | 0.3 | -29
Cc1ccccc1N(C(=O)CNC(=O)c1ccco1)C(C(=O)NC1CCCC1)c1ccncc1 (centres undefined) | / | / | 8 | 1.4 | /
COc1c(Cl)cc(Cl)cc1C(=O)Nc1ccc(C(=O)O)cc1 | 4% | 1 | -6 | -4.3 | -31
Cc1nc(-c2nnc(SCC(=O)Nc3ccc(C(F)(F)F)cc3)n2C)cs1 | 2% | / | -8 | -7.2 | /
COc1ccc(-n2cnnc2SCC(=O)Nc2cccc([N+](=O)[O-])c2)cc1 | 9% | 3 | -3 | -2.1 | /
CCCC(O)(CCC)C(=O)NN(C(=O)CCl)c1cccc(C)c1 | 76% | -6 | 96 | 18 | 0
C=CCc1ccccc1OCC(=O)N/N=C/c1ccccc1OCC | -8% | -6 | 0 | -0.9 | -15
CCOc1ccc(-c2nc(C#N)c(NCC(C)C)o2)cc1 | -1% | 7 | 99 | -2.0 | -40
Cc1ccc(OCC(=O)Nc2cc(S(=O)(=O)N3CCCCC3)ccc2N2CCN(C)CC2)c(C)c1 | / | / | 56 | 4.7 | /
O=C(Nc1ncn[nH]1)C(F)(F)C(F)F | 6% | 4 | -5 | 0.4 | -6
COc1ccccc1NC(=S)N1CCN(C(c2ccccc2)c2ccccc2)CC1 | 3% | 8 | -4 | -1.1 | /
Cc1cccc(NC(=O)NNC(=O)c2cc3ccccc3cc2O)c1C | 4% | -21 | -4 | -14 | /
Nc1nc2ccc([N+](=O)[O-])cc2[nH]1 | -5% | / | -3 | 1.8 | /
CCc1ccc(C2=CC(c3cc(Br)ccc3F)n3ncnc3N2)cc1 (centres undefined) | 4% | 62* | 20 | / | -2
COc1ccccc1CCNC(=O)CC1C(=O)NCCN1CCCc1ccccc1 (centres undefined) | / | / | -3 | 0.4 | /

14 successive entries out of the list so far:
SMILES | Mtb H37Rv | Arbovirus inh | Mtb bLac sens | RecA splice inh | YopH inh | others
Cc1ccccc1N(C(=O)CNC(=O)c1ccco1)C(C(=O)NC1CCCC1)c1ccncc1 (centres undefined) | / | / | 8 | 1.4 | /
COc1c(Cl)cc(Cl)cc1C(=O)Nc1ccc(C(=O)O)cc1 | 4% | 1 | -6 | -4.3 | -31
Cc1nc(-c2nnc(SCC(=O)Nc3ccc(C(F)(F)F)cc3)n2C)cs1 | 2% | / | -8 | -7.2 | /
COc1ccc(-n2cnnc2SCC(=O)Nc2cccc([N+](=O)[O-])c2)cc1 | 9% | 3 | -3 | -2.1 | /
CCCC(O)(CCC)C(=O)NN(C(=O)CCl)c1cccc(C)c1 | 76% | -6 | 96 | 18 | 0
C=CCc1ccccc1OCC(=O)N/N=C/c1ccccc1OCC | -8% | -6 | 0 | -0.9 | -15
CCOc1ccc(-c2nc(C#N)c(NCC(C)C)o2)cc1 | -1% | 7 | 99 | -2.0 | -40
Cc1ccc(OCC(=O)Nc2cc(S(=O)(=O)N3CCCCC3)ccc2N2CCN(C)CC2)c(C)c1 | / | / | 56 | 4.7 | /
O=C(Nc1ncn[nH]1)C(F)(F)C(F)F | 6% | 4 | -5 | 0.4 | -6
COc1ccccc1NC(=S)N1CCN(C(c2ccccc2)c2ccccc2)CC1 | 3% | 8 | -4 | -1.1 | /
Cc1cccc(NC(=O)NNC(=O)c2cc3ccccc3cc2O)c1C | 4% | -21 | -4 | -14 | /
Nc1nc2ccc([N+](=O)[O-])cc2[nH]1 | -5% | / | -3 | 1.8 | /
CCc1ccc(C2=CC(c3cc(Br)ccc3F)n3ncnc3N2)cc1 (centres undefined) | 4% | 62* | 20 | / | -2
COc1ccccc1CCNC(=O)CC1C(=O)NCCN1CCCc1ccccc1 (centres undefined) | / | / | -3 | 0.4 | /

(cont.)
SMILES | Mtb H37Rv | Arbovirus inh | Mtb bLac sens | RecA splice inh | YopH inh | others
O=C(CCn1c(=O)sc2ccccc21)NCCC1=CCCCC1 | 0% | -6 | 5 | / | /
CCOc1ccc(S(=O)(=O)N2CCN(S(=O)(=O)c3ccc(C(C)=O)cc3)CC2)cc1 | / | / | -6 | -1.2 | /
CCc1nnc(NC(=O)c2ccc(-c3cc(C(F)(F)F)ccc3Cl)o2)s1 | 2% | 2 | 3 | -2.2 | -6
Cc1cccc(N2CCN(C(=O)CCC(=O)N3Cc4ccccc4Oc4ncccc43)CC2)c1C | / | / | 55 | 13 | /
CC(CC(=O)Nc1cccnc1)c1ccccc1 (centres undefined) | 6% | 3 | -8 | -3.8 | /
CCOP(=S)(OCC)Oc1cc(C)oc(=O)c1 | -5% | / | 2 | -6.5 | /
CCCc1nc(C)c2c(=O)[nH]c(-c3cc(S(=O)(=O)N4CCN(CC)CC4)ccc3OCC)nn12 | -5% | / | -1 | -2.4 | /
COc1ccc(C(=O)NC2CCCN(Cc3ccccc3F)C2)c(OC)c1OC (centres undefined) | / | / | -4 | 1.2 | /
COc1cccc(/C=C/C(=O)NCc2ccc(S(N)(=O)=O)cc2)c1 | -1% | / | -4 | 1.1 | /
COc1ccc(/C=N\NC(=S)SCN2C(=O)C3CCC(C)(C2=O)C3(C)C)cc1 (centres undefined) | 0% | -4 | -11 | 0.1 | -19
Cc1csc(NC(=O)c2cnc3ccccc3n2)n1 | / | / | 80 | 1.5 | /
CCOC(=O)C1CCN(C(=O)c2ccccc2NS(=O)(=O)c2ccc(C)cc2)CC1 | / | / | -6 | 0.2 | /
NC(=O)c1ccsc1NC(=O)CS(=O)(=O)c1ccc(F)cc1 | / | / | -5 | 1.0 | /
Cc1nn(C)c(C(=O)Nc2ccn(C34CC5CC(CC(C5)C3)C4)n2)c1[N+](=O)[O-] | 5% | 3 | 4 | -0.7 | -24
COc1cccc(OCCOc2ccccc2[N+](=O)[O-])c1 | 10% | / | -8 | 6.4 | -34
Cc1cccn2c(=O)c(C=O)c(N3CCN(c4ccc(F)cc4)CC3)nc12 | 4% | 5 | -1 | -1.7 | /
Cc1ccc2c(c1)c1c(n2CC(O)Cn2c(C)nc3ccccc32)/C(=N\O)CCC1 (centres undefined) | ? | -33 | 94 | -3.0 | -17
CCOC(=O)c1ccc(NC(=O)N2CCN(C(=O)C3CCCO3)CC2)cc1 (centres undefined) | 5% | 7 | -8 | -1.9 | /
O=C(Cc1ccc(Br)cc1)N/N=C/c1cccnc1 | / | / | 1 | 1.1 | /
CCOc1ccccc1-c1nc(CN2CCCN(C(=O)c3ccco3)CC2)c(C)o1 | / | / | -18 | 3.1 | /
COc1ccc(Cl)cc1S(=O)(=O)NCc1ccncc1 | / | / | -8 | -3.0 | /
Cc1ccccc1NC(=O)NNC(=O)CCc1ccccc1 | / | / | -3 | 1.2 | /
Cc1oc2ccc(O)cc2c1C(=O)c1ccc(Br)cc1 | / | / | 31 | 2.9 | /
Cc1ccc(C(=O)NCCN2C3=NC[C@H](Cc4ccc(O)cc4)N3C[C@H]2Cc2ccc(O)cc2)cc1Br | 14% | / | 92 | 2.9 | /
CNc1nc(NC)nc(-n2c(C(F)(F)F)nc3ccccc32)n1 | 17% | -3 | 57 | 1.0 | -2
CC(C)C(=O)Nc1ccc(S(=O)(=O)N2CC3CC(C2)c2cccc(=O)n2C3)cc1 (centres undefined) | -6% | 7 | -4 | 0.9 | /
COc1ccccc1NC(=O)Nc1nnc(CC(=O)Nc2ccccc2)s1 | 2% | 7 | -1 | -3.7 | /
CCC1=C(OC(=O)N(CC)CC)N2C(=O)OC(=NCCc3c[nH]c4ccccc34)[C@]2(C)[C@H]2C1=CC[C@H]1C(=O)N(CC)C(=O)[C@H]12 | 15% | / | -5 | -1.4 | /
CCOC(=O)C1=C(C(F)(F)F)Nc2ncnn2C1c1cccc(OC)c1OC (centres undefined) | -2% | 5 | 2 | 1.1 | -27
CCN1CCN(c2ncnc3sc4c(c23)CCC(C)C4)CC1 (centres undefined) | / | / | 6 | 1.5 | /
CNC(=O)c1ccc2snnc2c1 | 4% | -2 | 6 | 0.3 | -47 | Arbovirus inh repeat=6
CCc1c(C)nc2[nH]nc(NC(=O)C(F)(F)F)n2c1=O | 5% | 6 | 21 | -1.4 | -50
COc1cccc(C(=O)Nc2nnc(S(=O)(=O)Nc3cccc(C)c3)s2)c1 | / | / | 4 | -2.7 | /
O=[N+]([O-])c1ccc(Oc2ccc(S(=O)(=O)Nc3ccccc3)cc2)cc1 | 6% | -4 | 5 | -5.1 | -38
CCn1c(=S)sc2nc(C)sc21 | -8% | / | -1 | -2.3 | 13
COc1ccc(-c2nn(-c3ccccc3)cc2C(=O)NC(=S)NNC(=O)c2ccncc2)cc1 | ? | -17 | 98 | -0.7 | /
CC(C)(C)CC(C)(C)c1ccc(O)c(CN2CCN(CCC#N)CC2)c1 | -2% | 8 | 18 | -0.3 | -10
CCOc1ccc(CNS(=O)(=O)c2cc(CN3C(=O)c4cccnc4C3=O)ccc2OC)cc1 | / | / | -5 | 0.3 | /
COc1cc(/C=C(/C(=O)c2cccs2)c2nc3ccccc3[nH]2)ccc1O | -4% | -32 | 12 | 7.5 | 20
COC(=O)c1ccccc1NC(=O)Nc1cccnc1 | 2% | 8 | -3 | -1.7 | -12
O=[N+]([O-])c1nn(-c2ccc3c(c2)OCCO3)n(O)c1=Nc1ccc(Cl)cc1 | 30% | -27 | 14 | -0.8 | -38
Cc1cccc(NC(=O)CCS(=O)(=O)c2ccc(Br)cc2)c1 | / | / | 6 | -1.7 | /
CN(C)CCCN(Cc1cc2cc3c(cc2[nH]c1=O)OCO3)C(=S)NCc1ccco1 | -8% | 4 | -1 | -0.7 | /
CC(C)C(OC(=O)c1ccc(Cl)nc1)C(=O)NC1CCCCC1 (centres undefined) | / | / | -2 | -0.3 | /
Cc1ccc(C)c(NC(=O)C(Sc2ncnc3ccccc23)c2ccccc2)c1 (centres undefined) | -1% | -14 | 36 | 6.2 | -21
Cc1ccc(CCNC(=O)C2CCN(c3nn4c(=O)cc(C)nc4s3)CC2)cc1 | -5% | 5 | -10 | 2.2 | -35
O=C(NCc1ccc(OC(F)(F)F)cc1)C1CC(c2cccc(F)c2)=NO1 (centres undefined) | -1% | / | -6 | 2.1 | /
